Screening data: PubChem, several laboratories
Beta cell apopt: beta cell apoptosis inhibition | INS-1E cytokine-induced death, ATP luminescence, 48 h; percent of positive-control rescue, neutral wells zero | protection from apoptosis, % (no concentration beside the values) | actives 0.8% (n = 300,000);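 active = all replicates at 75% or more, or half of them and the mean; inconclusive = half reach 75% but not the mean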;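 also: 0% = cytokine-treated negative control wells and 100% = positive control rescue; higher means more ATP so stronger rescue from cytokine killing; wells of about 40 µL received 100 nL stock; the first replicate is given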
Calb FLC: affects C. albicans growth with fluconazole. C. albicans CaCi-2 (fluconazole-resistant clinical isolate) + fluconazole, Alamar Blue growth, 48 h. growth inhibition, % (test concentration not listed). actives 0.57% (n = 300,000);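 active = most replicates above 75%; inconclusive = exactly half above 75%; inactive = most below 75%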;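 also: all wells also contain fluconazole at 8 µg/ml as a sub-toxic cotreatment; 0% = median of DMSO wells and 100% = median of geldanamycin control wells; wells of about 8 µL received 7.5 nL stock; the first replicate is given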
T cruzi inh: blocks replication of Trypanosoma cruzi; AID 1885; actives 1.4% (n = 300,000); T. cruzi beta-gal in NIH3T3, luminescence, 90 h; inhibition, % (test concentration not listed);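 active = mean inhibition across valid replicates above about 55%, limit read from the data; inconclusive = mean below that limit but half or more replicates reach it; inactive = mean below it, under half of replicates reach it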;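 also: signal also drops with host cell toxicity which is not excluded here; 0% = plate median of DMSO wells and 100% = zero luminescence signal; higher percent means less beta-gal luminescence so fewer parasites; stock transfer was 50 nL into about 50 µL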
UCH37 inh: blocks the human deubiquitinase UCH37; actives 0.33% (n = 330,000); Q9Y5K5; inhibition, % (concentration not given with the values); purified proteasome/UCH37, Ub-AMC cleavage fluorescence; AID 588478;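 active = mean of two replicates above 20%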;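 also: 0% = compound-free wells with enzyme and 100% = wells lacking proteasome; stock transfer was 100 nL into about 20 µL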
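Reagent: Ub-AMC substrate; assay system: Proteasome-associated human UCH37 deubiquitinase; controls: no-proteasome and no-compound wells; read-out: % inhibition of Ub-AMC cleavage fluorescence; timing: 30 min preincubation with enzyme, 25 min cleavage at room temperature; signal: AMC fluorescence from Ub-AMC cleavage, excitation 355 nm, emission 460 nm; buffer or medium: Tris-HCl pH 7.4 plus ovalbumin, ATP-MgCl2, DTT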
A1 inh: inhibitors of the anti-apoptotic protein A1, read as caspase activation; caspase activation, % (concentration not given with the values); actives 0.066% (n = 330,000); AID 2462; MEF A1-2A-BIM cells, Caspase-Glo 3/7 luminescence, 3 h; percent of clofoctol response, vehicle zero;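 active = over half of replicate activation scores above 10%, or exactly half above 10 with the replicate mean above 10; inconclusive = replicate mean below 10 yet half the replicates above 10; inactive = over half of replicates below 10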;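 also: wells of about 30 µL received 50 nL stock; many hits fall short of the cut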
B2AR ag: human beta-2 adrenergic receptor agonism by FAP; Am2.2-beta2AR cells, FAP receptor internalization, flow cytometry; reference of the scale not given here; actives 0.43% (n = 340,000); response, % (test concentration not listed); AID 504454;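 active = response above a set limit, near 3 SD of response in nonfluorescent compounds, cut at about 42% in these data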;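 also: stock transfer was 100 nL into about 11 µL; a reference agonist was the positive control; negative values mostly stem from fluorescent compounds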
LANA-H2B inh: blocks KSHV LANA binding to histone H2A/H2B; Q9QR71; cell-free LANA-H2A/H2B peptide, fluorescence polarization; inhibition, % (no concentration beside the values); actives 0.6% (n = 320,000); in the data active = inhibition mostly above about 10%, no sharp cut-off; inactive = mostly below about 6.7%;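 also: stock transfer was 7.5 nL into about 10 µL; 0% = median of vehicle wells and 100% = median of positive control wells; one replicate is shown; the record names a cut of 25% in any replicate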
Target sequence (Q9QR71 whole entry, looked up): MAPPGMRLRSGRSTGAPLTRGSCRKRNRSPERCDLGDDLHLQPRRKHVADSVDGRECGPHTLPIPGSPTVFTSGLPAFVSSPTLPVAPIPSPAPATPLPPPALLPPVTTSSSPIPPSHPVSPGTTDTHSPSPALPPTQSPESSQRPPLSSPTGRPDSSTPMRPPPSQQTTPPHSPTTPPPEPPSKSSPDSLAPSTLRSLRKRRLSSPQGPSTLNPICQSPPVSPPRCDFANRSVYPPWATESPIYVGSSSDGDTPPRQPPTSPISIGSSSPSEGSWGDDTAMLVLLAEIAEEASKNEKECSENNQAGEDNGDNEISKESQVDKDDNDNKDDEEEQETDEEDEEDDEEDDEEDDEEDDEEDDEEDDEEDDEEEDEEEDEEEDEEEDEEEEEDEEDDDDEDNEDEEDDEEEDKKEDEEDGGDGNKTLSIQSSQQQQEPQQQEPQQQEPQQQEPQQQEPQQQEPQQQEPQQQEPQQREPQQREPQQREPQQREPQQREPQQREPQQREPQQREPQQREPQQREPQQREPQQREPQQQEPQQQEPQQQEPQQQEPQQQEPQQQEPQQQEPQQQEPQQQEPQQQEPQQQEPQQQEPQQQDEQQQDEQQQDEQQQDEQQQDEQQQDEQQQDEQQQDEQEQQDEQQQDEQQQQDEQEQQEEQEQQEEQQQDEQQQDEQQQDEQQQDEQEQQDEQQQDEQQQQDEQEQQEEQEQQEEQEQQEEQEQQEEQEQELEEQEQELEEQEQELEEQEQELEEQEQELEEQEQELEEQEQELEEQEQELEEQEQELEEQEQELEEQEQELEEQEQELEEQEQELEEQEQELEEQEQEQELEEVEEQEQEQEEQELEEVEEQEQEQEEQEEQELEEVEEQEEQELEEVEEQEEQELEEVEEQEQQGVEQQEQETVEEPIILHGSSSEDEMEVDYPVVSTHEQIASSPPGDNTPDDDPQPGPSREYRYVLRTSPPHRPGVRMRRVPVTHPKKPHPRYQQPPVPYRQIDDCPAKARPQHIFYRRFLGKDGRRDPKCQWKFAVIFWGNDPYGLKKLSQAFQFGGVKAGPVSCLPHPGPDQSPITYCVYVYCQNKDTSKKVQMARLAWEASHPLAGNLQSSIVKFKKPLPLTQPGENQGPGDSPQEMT
RanGTP-Imp inh: disruptors of Ran-importin-beta complex formation – biochemical, FRET, CFP-Ran, YFP-importin-beta, homogeneous, primary screen; AID 2216; actives 1.1% (n = 300,000); cell-free CFP-Ran/YFP-importin-beta FRET ratio; inhibition, % (concentration not given with the values);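 active = most replicates above 15%; inconclusive = exactly half above 15%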;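 also: 0% = DMSO wells and 100% = Ran loaded with GDP instead of GTP; wells of about 40 µL received 100 nL stock; the first replicate is given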
* = called active by the depositor; ? = inconclusive; . = not tested or not shown. This is a random part of the collection. About 4.3% of those tested had a hit in this group.

SMILES | Beta cell apopt | Calb FLC | T cruzi inh | UCH37 inh | A1 inh | B2AR ag | LANA-H2B inh | RanGTP-Imp inh
COc1cccc(C(=O)/C=C/Nc2cccc(O)c2)c1 | -3 | -11 | -11 | -3.5 | -11 | -6 | -5.5 | 8.3
COc1ccc(NC(=S)N2CCC(NC(=O)C3CCCCC3)CC2)cc1 | -4 | -1 | -21 | 1.9 | 0.3 | 2 | 2.8 | ?
COc1cccc(CCNC(=O)CC2C(=O)NCCN2Cc2ccc(Cl)c(F)c2)c1 (stereo not given) | . | 4 | -5 | 1.3 | 0.1 | -5 | 3.0 | -2.6
CCCCc1nnc(NC(=O)CSc2nc(=O)cc(N)n2-c2ccccc2)s1 | -10 | -1 | 1 | 5.4 | 0.1 | -4 | 3.8 | ?
O=C(CSc1nncn1-c1ccccc1)Nc1c(F)cccc1F | -13 | 1 | -8 | 1.1 | 0.3 | 3 | -0.5 | -0.1
Cn1c2ccccc2c2cc(C(=O)N3CCOCC3)sc21 | -8 | 18 | 8 | 4.8 | -0.3 | -11 | 4.3 | -4.1
OCCSc1nnc(Nc2ccccc2)s1 | -1 | 0 | -11 | 4.9 | 0.8 | -4 | -1.0 | 3.7
CSCC[C@H](NC(=O)OC(C)(C)C)C(=O)N1CCC(C(=O)N[C@H](C(=O)O)C(C)C)CC1 | -4 | -3 | 5 | -1.9 | 0.1 | -2 | -5.6 | -2.2
Cc1cc(NC(=O)CCN2C(=O)C3C4C=CC(C4)C3C2=O)ccc1Br (stereo not given) | -7 | 27 | -8 | . | 1.3 | 3 | -1.5 | ?
Cc1ccc(N2CCN(/N=C/c3ccccc3)CC2)cc1 | 5 | -20 | 18 | . | -0.4 | 0 | 3.6 | 4.3
COc1ccccc1CNC(=O)/C=C/c1cc2c(cc1Br)OCO2 | . | 6 | -3 | -0.1 | -0.1 | -3 | -4.8 | 1.7
CC(C)(C)c1ccc(C(=O)NC(=S)NCc2cccnc2)cc1 | 6 | -17 | 15 | 2.7 | -0.8 | 7 | 1.1 | -3.1
O=C(C1=C(O)C(=O)N(CC2CCCO2)C1c1ccccc1)c1ccco1 (stereo not given) | -8 | 1 | -5 | 9.2 | 0.4 | -3 | -1.5 | -5.2
CC(=O)O/N=C/c1c(Cl)n(C)c2ccccc12 | -2 | -28 | 5 | . | -0.4 | -5 | -0.8 | 48*
Cc1ccc(C)c(S(=O)(=O)Nc2ccc(C(=O)NCCc3ccccn3)cc2)c1 | 3 | -1 | 3 | 0.3 | -0.2 | -2 | 4.4 | 0.1
COc1ccc(OC)c(-c2cc(C(=O)Nc3ccccc3C(N)=O)c3ccccc3n2)c1 | . | 1 | 18 | -23 | -0.1 | 3 | 0.3 | ?
COc1ccc(OC)c(S(=O)(=O)N2CCCC(N3CCN(c4ccccc4)CC3)C2)c1 (stereo not given) | -1 | -7 | 10 | 0.8 | 0.8 | -1 | -0.8 | 1.8
CCn1nnc2cc(C(=O)NCC(c3ccccc3OC)N(C)C)ccc21 (stereo not given) | -5 | -4 | 30 | 6.2 | -0.1 | -11 | 0.3 | 3.8
O=C(NCCO)c1ccc2c(c1)S(=O)(=O)c1ccccc1C2=O | -1 | -6 | -1 | 3.2 | -1.9 | 39 | 4.6 | 0.4
O=C(CNC(=O)c1ccc(Br)o1)NCCc1ccc(F)cc1 | -2 | 2 | -4 | 3.3 | 0.7 | 5 | 2.2 | ?

SMILES | Beta cell apopt | Calb FLC | T cruzi inh | UCH37 inh | A1 inh | B2AR ag | LANA-H2B inh | RanGTP-Imp inh
Nc1ccc(-n2nncc2-c2ccc(Cl)cc2)cc1 | 2 | 6 | 6 | 3.4 | -0.1 | -8 | 1.1 | 1.3
Cn1cccc1CC(=O)NNC(=O)Nc1ccc(F)cc1 | 0 | 6 | -18 | 2.0 | 0.0 | -4 | -1.6 | -0.3
COc1ccccc1C(=O)N(Cc1ccco1)C1CCS(=O)(=O)C1 (stereo not given) | -2 | 15 | -8 | -4.2 | -1.3 | 1 | -0.9 | 2.6
CCC(=O)N(c1nnc(SCC(=O)Nc2ccc(N3CCOCC3)cc2)s1)C1CC1 | -4 | . | . | 1.5 | 0.1 | -3 | 0.1 | .
CCC(C)(C)n1nnnc1C(c1ccccc1)N1CCN(Cc2ccccc2)CC1 (stereo not given) | -5 | -3 | 1 | 0.4 | 0.6 | 1 | -0.2 | 2.1
Cc1cccc(C(=O)N2CCN(C(=O)c3cccc(C)c3)C(C)C2)c1 (stereo not given) | 1 | . | . | -1.4 | -0.3 | -3 | -1.5 | .
COc1ccc(S(=O)(=O)N2CCC(C(=O)Nc3c(F)cccc3F)CC2)cc1 | -5 | 6 | 8 | 5.3 | -0.3 | 4 | 1.0 | 6.0
Cc1cc(=O)[nH]c(SCc2cc(=O)n3nc(C)sc3n2)n1 | -1 | -11 | -10 | 4.6 | 0.5 | -7 | 1.2 | -11
COc1ccccc1N1C(N)=NC(N)=NC1(C)C | -12 | 2 | -21 | 0.9 | 0.1 | 1 | 5.0 | 1.6
Cc1ccc(Cn2c(=N)c(C#N)cc3c(=O)n4cccc(C)c4nc32)cc1 | 3 | 11 | 18 | -4.7 | 1.2 | . | 6.0 | 63*
Cc1nc(-c2ccccc2)sc1C(=O)/C=C/c1ccccc1 | -4 | 2 | -1 | . | -0.3 | 17 | 5.9 | 1.0
CCC(C(=O)Nc1nccs1)c1ccccc1 (stereo not given) | . | -10 | 3 | 0.8 | 1.4 | 0 | 0.0 | 0.5

With a hit mark in RanGTP-Imp inh, of those listed so far:
molecule	UCH37 inh	B2AR ag	LANA-H2B inh	RanGTP-Imp inh
CC(=O)O/N=C/c1c(Cl)n(C)c2ccccc12	.	-5	-0.8	48*
Cc1ccc(Cn2c(=N)c(C#N)cc3c(=O)n4cccc(C)c4nc32)cc1	-4.7	.	6.0	63*

11 successive records from above, quoted:
SMILES | Beta cell apopt | Calb FLC | T cruzi inh | UCH37 inh | A1 inh | B2AR ag | LANA-H2B inh | RanGTP-Imp inh
O=C(CNC(=O)c1ccc(Br)o1)NCCc1ccc(F)cc1 | -2 | 2 | -4 | 3.3 | 0.7 | 5 | 2.2 | ?
Nc1ccc(-n2nncc2-c2ccc(Cl)cc2)cc1 | 2 | 6 | 6 | 3.4 | -0.1 | -8 | 1.1 | 1.3
Cn1cccc1CC(=O)NNC(=O)Nc1ccc(F)cc1 | 0 | 6 | -18 | 2.0 | 0.0 | -4 | -1.6 | -0.3
COc1ccccc1C(=O)N(Cc1ccco1)C1CCS(=O)(=O)C1 (stereo not given) | -2 | 15 | -8 | -4.2 | -1.3 | 1 | -0.9 | 2.6
CCC(=O)N(c1nnc(SCC(=O)Nc2ccc(N3CCOCC3)cc2)s1)C1CC1 | -4 | . | . | 1.5 | 0.1 | -3 | 0.1 | .
CCC(C)(C)n1nnnc1C(c1ccccc1)N1CCN(Cc2ccccc2)CC1 (stereo not given) | -5 | -3 | 1 | 0.4 | 0.6 | 1 | -0.2 | 2.1
Cc1cccc(C(=O)N2CCN(C(=O)c3cccc(C)c3)C(C)C2)c1 (stereo not given) | 1 | . | . | -1.4 | -0.3 | -3 | -1.5 | .
COc1ccc(S(=O)(=O)N2CCC(C(=O)Nc3c(F)cccc3F)CC2)cc1 | -5 | 6 | 8 | 5.3 | -0.3 | 4 | 1.0 | 6.0
Cc1cc(=O)[nH]c(SCc2cc(=O)n3nc(C)sc3n2)n1 | -1 | -11 | -10 | 4.6 | 0.5 | -7 | 1.2 | -11
COc1ccccc1N1C(N)=NC(N)=NC1(C)C | -12 | 2 | -21 | 0.9 | 0.1 | 1 | 5.0 | 1.6
Cc1ccc(Cn2c(=N)c(C#N)cc3c(=O)n4cccc(C)c4nc32)cc1 | 3 | 11 | 18 | -4.7 | 1.2 | . | 6.0 | 63*
